TRPV1 potentiator = human TRPV1 potentiation; TRPV1-expressing cells, Fluo-8 calcium influx, capsaicin EC20 potentiation; host cell line not named in the record; control for the full effect not named in the record; potentiation, % at 8.33 µM; 320,000 compounds, 0.02% hits; active means potentiation above 80%; inconclusive means 30% to 80%; inactive means below 30%; note: 0% is about no effect
Target sequence (Q8NER1 whole entry, looked up): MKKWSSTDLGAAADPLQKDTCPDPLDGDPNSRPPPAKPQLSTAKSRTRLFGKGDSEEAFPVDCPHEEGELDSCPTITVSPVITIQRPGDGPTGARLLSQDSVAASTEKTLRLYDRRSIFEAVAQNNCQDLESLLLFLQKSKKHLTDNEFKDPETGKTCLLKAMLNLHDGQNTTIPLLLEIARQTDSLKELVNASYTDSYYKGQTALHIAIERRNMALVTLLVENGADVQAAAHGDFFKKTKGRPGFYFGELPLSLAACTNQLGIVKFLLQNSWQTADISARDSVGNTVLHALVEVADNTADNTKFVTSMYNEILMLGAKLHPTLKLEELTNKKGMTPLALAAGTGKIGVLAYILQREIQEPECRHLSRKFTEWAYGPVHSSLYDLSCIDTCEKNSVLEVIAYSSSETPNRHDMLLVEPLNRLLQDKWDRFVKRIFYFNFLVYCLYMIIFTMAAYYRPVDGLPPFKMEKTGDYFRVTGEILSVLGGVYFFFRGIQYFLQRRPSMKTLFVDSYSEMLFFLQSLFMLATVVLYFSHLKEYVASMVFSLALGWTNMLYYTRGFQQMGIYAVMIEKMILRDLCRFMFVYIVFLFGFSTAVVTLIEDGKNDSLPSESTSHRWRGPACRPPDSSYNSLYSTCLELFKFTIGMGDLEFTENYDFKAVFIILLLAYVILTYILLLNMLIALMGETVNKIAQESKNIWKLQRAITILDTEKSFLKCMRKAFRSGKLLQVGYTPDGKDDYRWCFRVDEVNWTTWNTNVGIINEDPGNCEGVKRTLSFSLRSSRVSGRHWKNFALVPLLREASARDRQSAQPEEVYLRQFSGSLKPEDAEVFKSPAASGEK
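TRPV1-expressing cells were cultured overnight at 35.5C and loaded with Fluo-8 calcium dye for 40 to 90 min at room temperature. After a 10 s baseline, compound was added and calcium influx was read kinetically for 3 min (ex 480/em 520 nm).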
gsp antag = antagonists of gsp mutant (McCune-Albright syndrome); gsp-mutant cells, cAMP HTRF, 30 min; control for the full effect not named in the record; Potency, µM (highest dose often 76.9 µM), for the others: top-dose activity change, negative = inhibition, usual class: inhibitors; 340,000 compounds, 0.4% hits; AID 624288; active = falling curve of any shape with a large fitted effect; inconclusive = falling curve, mostly with a smaller effect; inactive = flat or rising curve; cell line not stated here;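 note: intracellular cAMP measured with PDE inhibitor Ro 20-1724 present during compound exposure; potency is the fitted concentration of half-maximal effect; % is set by controls: 0 for no effect and ±100 for the full control effect; nearly all actives have a fitted effect of over 65% in size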
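G418-selected cells were plated in DMEM/10% FBS for 16-24 h at 37C, then treated with compounds plus the PDE inhibitor […] (300 uM solution added) for 30 min at 37C. Intracellular cAMP was measured by HTRF after 30 min lysis at room temperature.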
ClpP mod = qHTS Assay for Activators of ClpP; purified B. subtilis ClpP, FRET peptide cleavage, 20 min; Potency, µM (titrated, usually from 57.5 µM), for the others: at the highest dose activity change, negative = active; 340,000 compounds, 1.9% hits; active = well fitted falling curve with a large enough effect; inconclusive = small, poorly fitted or top-dose-only effect; inactive = no such curve, though single readings can be large or run the other way; note: potency is the fitted concentration of half-maximal effect; the source files actives as falling curves though it sought activators and does not explain the sign; nearly all actives have a fitted effect of over 65% in size; many hits overshoot -100%
Target sequence (P80244 whole entry, looked up): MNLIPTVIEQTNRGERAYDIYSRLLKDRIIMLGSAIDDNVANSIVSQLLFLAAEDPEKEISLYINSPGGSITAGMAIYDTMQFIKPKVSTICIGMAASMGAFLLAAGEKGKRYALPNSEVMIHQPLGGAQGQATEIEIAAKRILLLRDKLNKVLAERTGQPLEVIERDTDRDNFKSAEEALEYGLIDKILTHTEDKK
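Purified B. subtilis ClpP, 10 microg/mL final in Tris/HCl pH8 with KCl, BSA, glycerol and Tween-20, cleaved an Abz/nitrotyrosine-quenched decapeptide. Fluorescence (ex 320, em 430) was read at 0 and 20 min at room temperature. Delta was normalized to 5.8 microM ADEP and DMSO/no-enzyme controls.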
Menin MLL FP FL = inhibitors of human menin-MLL interaction, wild-type MLL peptide; Fluorescence polarization, fluorescein-MLL peptide displacement from menin; 290,000 tested, under 10 active; FP activity change, % at 61.4 µM; AID 1766; inconclusive = falling polarisation curve, or a change in total fluorescence; inactive = total fluorescence flat and polarisation flat or rising; no compound was filed as active; the % refers to the polarisation; negative = inhibition;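 note: % of control where 0% means no effect; inhibitors lower the polarisation; unlabelled MLL peptide was the positive control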
Sfp PPTase inh = Sfp phosphopantetheinyl transferase inhibition; Potency, µM, for the others: max response, negative = inhibition, usual class: inhibitors; Biochemical Sfp PPTase activity, qHTS; 310,000 compounds, 3.5% hits; AID 1490; active = well fitted inhibition curve with a large enough effect; inconclusive = small, poorly fitted or top-dose-only effect, or another doubt; inactive = no such curve, though single readings can be large or run the other way;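 note: the enzyme is Sfp with the accession as filed and its product quenches rhodamine fluorescence; potency is the fitted concentration of half-maximal effect; 0% = enzyme reaction without inhibitor and -100% = no enzyme wells; top concentration of the series not given in the record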
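Step 1, compound plus 15 nM Sfp-PPTase, 15 min, room temperature. Step 2, add rhodamine-CoA (5 uM) and BHQ-2-YbbR (12.5 uM). Step 3, read 525/598 nm fluorescence at 0 and 30 min.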
D2 PAM = human D2 receptor positive allosteric modulation; DiscoveRx D2 beta-arrestin cells, luminescence, 90 min; 100% = 57 uM dopamine signal; potentiation, % (no concentration beside the values); P14416; 360,000 compounds, 0.23% hits; active = potentiation of 50% or more; inconclusive = 30% to 50%; inactive = 30% or less;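 note: compound concentration not given in the record; tested on top of an EC20 dose of dopamine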
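PathHunter D2 cells, attached overnight at 37 deg C, received compound in DMSO plus dopamine at EC20 (50 nM final) for 90 min at 37 deg C. Beta-arrestin recruitment was read as luminescence after 1 h with detection reagent at ambient temperature.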
gsp ag = gsp mutant agonism. Potency, µM (series often up to 76.9 µM), without a hit: at the top dose activation (cAMP increase), hits mostly activators. AID 624287. 340,000 compounds, 0.13% hits. gsp mutant cells, cAMP HTRF, 30 min; control for the full effect not named in the record; active = well fitted activation curve with a large enough effect; inconclusive = small, poorly fitted or top-dose-only effect, or another doubt; inactive = no such curve, though single readings can be large or run the other way; cell line not stated here;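 note: phosphodiesterase inhibitor Ro 20-1724 added with compounds to block cAMP breakdown; potency is the fitted concentration of half-maximal effect; nearly all actives have a fitted effect of over 60% in size; about a fifth of the inactives were tested at one dose only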
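Cells stably selected in G418 were plated at 2000/well, grown 16-24 hr, then given compounds in DMSO with the PDE inhibitor […] (300 uM solution added) for 30 min at 37C; cAMP was read by HTRF.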
The depositor's hits bear a star; ? = inconclusive; . = not tested or not shown; [ ] = dose if it differs, or a comment.

SMILES	TRPV1 potentiator	gsp antag	ClpP mod	Menin MLL FP FL	Sfp PPTase inh	D2 PAM	gsp ag
COC(=O)Cc1cc(=O)[nH]c(/N=C(\N)Nc2ccc(C(C)C)cc2)n1	17	-4%	.	1.8	-11%	-2	-6%[15.4 µM]
Cc1cc(NC(=O)COC(=O)c2nccnc2N)n(-c2ccccc2)n1	-2	16%	.	.	.	10	-12%[15.4 µM]
CCCSc1nc2c([nH]1)c(=O)n(C)c(=S)n2C	.	-28%	3.6%	.	.	-8	5%
O=c1c(Cl)c(NCC2CCCO2)cnn1C12CC3CC(CC(C3)C1)C2 (stereo unspecified)	-6	5%	-1.2%	-0.1	4%	-7	-2%
COc1ccc2c(COC(=O)[C@@H]3CCCN3S(=O)(=O)c3ccc(Cl)cc3)cc(=O)oc2c1	3	-23%	25µM*	.	.	-4	-5%
Cc1nonc1NC(=O)CSc1nc2ccc(Cl)cc2[nH]1	2	3%	.	-0.8	-8%	-4	-2%
CCc1nnc(NC(=O)c2ccc3c(c2)C(=O)N(CC)C3=O)s1	.	-2%	0.7%	.	.	-13	-55%[inhibitor]
O=C(Nc1ccccn1)C(=O)N1CCCCC1	9	10%	-0.6%	0.8	-6%	21	-5%
O=C1C(C=NCCN2CCOCC2)=C(O)c2ccccc21	13	5%	28µM*	1.3	14%	-21	28%
Cn1c(Cn2c(=O)sc3ccccc32)nnc1SCc1cccc(F)c1	5	1%	-0.4%	3.1	17%	-3	2%
COc1ccc(C2C3=C(CC(C)(C)CC3=O)Oc3ncn(CC(C)C)c(=N)c32)cc1 (stereo unspecified)	-8	-1%	-0.4%	-0.8	18%	3	12%
NC(=O)c1ccccc1Nc1nc2nc3ccccc3c(=O)n2cc1Br	24	-18%	.	11	10%	8	29%
CC(=O)c1ccc(OCCCCCCCOc2ccc(C(C)=O)cc2)cc1	-9	18%	.	-7.8	6%	-1	-38%
O=C(COC(=O)c1cccc(OC(F)F)c1)NC1CCCC1	-5	13%	.	8.8	16%	2	?
C/C(Cn1nnc([N+](=O)[O-])n1)=N\NC(=O)c1ccc(O)cc1O	-24	4%	-2.0%	.	-9%	59*	-46%[inhibitor]
Cc1nc2ncccn2c1-c1csc(Nc2ccc(O)cc2)n1	6	-28%	.	-3.7	?	-6	-23%
O=C(NC1=NCCS1)Nc1ccccc1	9	7%	-0.1%	1.6	13%	-9	-8%
C[C@@H]1CN([C@@H](C)CO)C(=O)c2cccc(NS(=O)(=O)c3ccc(F)cc3)c2O[C@H]1CN(C)C(=O)NC1CCCCC1	.	-3%	-5.5%	.	.	-14	-41%[inhibitor]
O=C(COc1ccc(Cl)c(Cl)c1)NC1CCS(=O)(=O)C1 (stereo unspecified)	3	11%	0.3%	.	.	-4	14%
COc1ccc(S(=O)(=O)N(C)CC(=O)Nc2c(F)cccc2F)cc1	-5	-1%	0.2%	1.8	11%	5	-24%
Cn1c(=O)[nH]c(=O)c2c1nc(N(CCO)Cc1ccccc1)n2Cc1ccccc1Cl	1	1%	0.0%	1.8	-4%	6	10%
CCn1cc(C(=O)O)c(=O)c2cnc(N3CCN(C(=S)Nc4ccccc4C(F)(F)F)CC3)nc21	23	-8%	.	1.0	9%	2	-12%[15.4 µM]
O=C(COC(=O)/C=C/c1cccc(F)c1)NNC(=O)c1ccccc1	25	-4%	.	0.8	11%	-4	-23%
CCCC[C@@H]1CNC(=S)N1CCc1cccc2ccccc12	14	-15%	-0.9%	0.3	-4%	-14	-4%
CCN(C(=O)c1ccco1)c1nnc(-c2ccc(OC)cc2)s1	1	-1%	-9.0%	3.2	-2%	23	32µM*

(more compounds)
SMILES	TRPV1 potentiator	gsp antag	ClpP mod	Menin MLL FP FL	Sfp PPTase inh	D2 PAM	gsp ag
O=C(NCCCN1CCOCC1)C1CCN(S(=O)(=O)c2cccc(Cl)c2Cl)CC1	8	9%	-4.2%	.	.	-1	-12%
Cc1cc(C)c(NC(=O)CNC(=O)c2cc(C3CC3)nn2-c2ccccc2)c(C)c1	8	-1%	0.8%	.	.	0	?
COc1ccc(/C=C/C(=O)N2CCOCC2)cc1OC	-1	6%	-20%	-5.1	6%	-2	-37%[inhibitor]
O=C(Nc1ccncc1)Nc1ccccc1Cl	-20	-5%	-2.2%	.	1%	-37	-2%
CCOc1cc(/C=C/c2nc3cc(C)c(C)cc3s2)ccc1OCC(=O)N1CCOCC1	-1	-18%	?	-0.1	?	3	-2%
CCOC(=O)C1CCN(C(=O)CCc2c(C)nc3cc(-c4ccccc4)nn3c2C)CC1	.	-17%	-28%	2.4	15%	-6	-2%
O=C(/C=C\c1ccc2c(c1)OCO2)NC1(C(=O)Nc2ccc3c(c2)OCO3)CCCCC1	1	?	-1.2%	.	-12%	-9	17%[15.4 µM]
CCN(C(=O)CN1CCN(C)CC1)c1cccc2ccccc12	25	6%	3.7%	-0.6	-13%	-9	-1%
C/C(Cn1nnc([N+](=O)[O-])n1)=N\NC(=O)c1ccc(C)cc1	-15	23%	0.5%	0.0	19%	?	-11%
CCOC(=O)Cn1nc(C)c2ccccc2c1=O	-8	-4%	-0.3%	3.1	16%	-12	?
CCOc1c2ccc(C(=O)NCc3ccc(C)cc3)cc2nn1CC	18	1%	4.5%	4.9	10%	-11	.
Cc1cc(-c2cc(-c3ccccc3)on2)nc(NC2CCCC2)n1	-3	-26%	2.3%	0.8	?	-6	.
CC(C)OC(=O)NCN1C(=O)C2C3C=CC(C3)C2C1=O (stereo unspecified)	3	-5%	-0.2%	-3.7	21%	-6	3%
CN(NS(=O)(=O)c1cccs1)c1ncc(C(F)(F)F)cc1Cl	-4	5%	-0.2%	-0.6	4%	16	11%
CC(C)n1cnc2c(=S)nc[nH]c21	20	-9%	1.9%	?	8.9µM*	-3	13%
CN1CCC(N2CCN(c3cccc(C(F)(F)F)c3)CC2)CC1	7	8%	0.4%	-3.9	2%	-19	5%
COc1ccc(NC(=O)CN(C)C(=O)CSc2nc3ccccc3s2)cc1	-6	-9%	.	.	.	-4	-8%[15.4 µM]
CC1CCN(Cc2nnnn2-c2cccc([N+](=O)[O-])c2)CC1	-10	-7%	4.8%	-0.1	?	-14	26%
Cc1ccccc1CC(=O)N1CCOCC1	6	-1%	-0.3%	-0.2	19%	-1	0%
COc1ccccc1N1CCN(C2CCN(C(=O)c3ccc(F)cc3)CC2)CC1	-4	-4%	1.2%	4.8	6%	-5	29%
CCc1ccc(NC(=O)c2onc(C)c2Cl)cc1	-6	-4%	-0.2%	-0.7	-18%	-8	-10%
COc1cccc(/C=C2\C(=O)N(c3cccc(C)c3)C(=O)c3ccccc32)c1	1	-14%	-6.2%	?	-15%	14	-4%
Cc1c(NS(=O)(=O)c2cccc(C(=O)Nc3ccc(SC(F)F)cc3)c2)c(=O)n(-c2ccccc2)n1C	.	-25%	-1.5%	.	.	5	-13%
Cc1ccc2c(c1)c1nnc(SCC(=O)Nc3ccc(N(C)C)cc3)nc1n2CC(=O)O	-11	-9%	1.3%	2.4	79µM*	2	?
COc1ccc(/C=C(\NC(=O)c2ccc(Cl)cc2)C(=O)NCC2CCCO2)cc1OC (stereo unspecified)	-15	0%	.	0.7	4%	-3	13%[15.4 µM]

Further compounds follow:
SMILES	TRPV1 potentiator	gsp antag	ClpP mod	Menin MLL FP FL	Sfp PPTase inh	D2 PAM	gsp ag
Cc1ccc(C)c(NC(=O)CN(C)C(=O)[C@@H](NC(=O)c2ccc(C(C)(C)C)cc2)C(C)C)c1	8	-18%	-0.3%	1.3	23%	-6	-9%[15.4 µM]
CCc1cc(C(=O)N(Cc2ccccc2)c2c(N)n(CCOC)c(=O)[nH]c2=O)sc1C	-10	-13%	1.8%	.	.	0	-3%[15.4 µM]
Cc1ccc(NC(=O)NC(=O)CSc2nnc(-c3ccc(Cl)cc3Cl)n2N)c(C)c1	-2	16%	0.9%	4.5	-18%	-11	-55%[inhibitor]
COC(=O)C1CCCN1C(=O)C1CCCN1C(=O)CNC(=O)OCc1ccccc1 (stereo unspecified)	-1	-1%	2.9%	0.2	30%	-4	-20%
CCOC(=O)c1c(C)c[nH]c1C	9	2%	.	2.4	12%	-5	?
O=C(NCC(F)(F)F)c1nn(Cc2ccccc2)c(=O)c2ccccc12	18	-4%	.	-0.4	-9%	-3	15%[15.4 µM]
CC(C)CCOc1ccc(C(=O)O)cc1	-1	0%	-0.2%	-0.8	5%	-9	10%
CN1CCN(Cc2c(C(=O)N3CCc4ccccc4C3)nc3ccc(Cl)cn23)CC1	-13	11%	-17%	.	-5%	-20	36%
O=C(CSc1nnnn1-c1ccc2c(c1)OCO2)NCc1ccccc1	-36	16%	?	7.1	0%	-12	-4%
CC(C)CCNC(=O)Nc1ccc2c(c1)N(C)C(=O)CS2	-14	-1%	-3.4%	3.5	2%	-16	-94%[inhibitor]
CCOc1cccc2cc(C(=O)NC(C)c3ccccc3)c(=N)oc12 (stereo unspecified)	11	-9%	-4.2%	.	2%	-65	8%[15.4 µM]
CCC(=O)N1c2ccccc2C(N(C(=O)CC)c2ccccc2)CC1C (stereo unspecified)	-4	-28%	.	3.8	17%	-8	7%[15.4 µM]
COC(=O)CN(c1c(C)cccc1C)S(C)(=O)=O	5	11%	0.2%	-0.5	7%	0	11%
O=C(CSc1nc(-c2ccccc2)c(-c2ccccc2)[nH]1)Nc1ccc2c(c1)OCO2	17	-17%	25µM*	1.8	-18%	-21	10%[15.4 µM]
COc1cc2c(cc1OC)-c1nc3ccccc3c(=O)n1C(C)(C)C2	8	2%	?	1.1	-10%	-8	?
Cc1cc(F)ccc1S(=O)(=O)N1CCCOC1CNC(=O)C(=O)NCc1ccco1 (stereo unspecified)	-4	11%	-3.0%	5.5	2%	-4	-50%[inhibitor]
CNc1nc(SCC(=O)Nc2ccccc2)nc(N2CCOCC2)n1	-11	13%	-1.0%	.	-7%	1	-15%
COc1c(/C=C2\SC(=Nc3ccccc3Cl)NC2=O)cccc1[N+](=O)[O-]	-2	-7%	1.1%	0.8	-19%	-12	-9%

Screens deposited in PubChem by National Center for Advancing Translational Sciences (NCATS).
